Bioassay records from PubChem BioAssay.
GIV Gai3 FP: blocks GIV peptide binding to rat Galpha-i3; P08753; Galpha-i3/FITC-GIV peptide fluorescence polarization, 90 min; stronger effect = lower value; scaled: aluminum fluoride 0%, vehicle 100%; percent of control (FP), % (test concentration not listed); hit rate 0.42% among 210,000; AID 1224905;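 active = replicate mean at 85% of control or lower, very high polarization wells dropped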;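 also: wells of about 15 µL received 100 nL stock; the first replicate is given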
Target sequence (P08753 whole entry, looked up): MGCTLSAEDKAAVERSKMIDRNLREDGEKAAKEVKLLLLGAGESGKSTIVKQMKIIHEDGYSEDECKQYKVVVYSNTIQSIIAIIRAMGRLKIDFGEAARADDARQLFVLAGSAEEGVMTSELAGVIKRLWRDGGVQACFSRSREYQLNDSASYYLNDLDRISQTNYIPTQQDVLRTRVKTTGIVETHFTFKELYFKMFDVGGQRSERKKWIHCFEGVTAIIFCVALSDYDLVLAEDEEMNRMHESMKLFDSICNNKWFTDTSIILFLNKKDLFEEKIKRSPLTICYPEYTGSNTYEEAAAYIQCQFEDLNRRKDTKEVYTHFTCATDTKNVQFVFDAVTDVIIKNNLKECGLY
Numbers without * were called inactive. These rows are one share of the data. The share of hits here may be higher or lower than overall.

mol | GIV Gai3 FP
CCN(CCO)C(=O)CCN1C(=O)/C(=C/c2cccs2)SC1=S | 121.6
COc1ccc(-c2cn(/N=C/c3ccc(Cl)cc3Cl)c(NC(=O)Nc3ccccc3Cl)n2)cc1 | 111.0
Cn1ncc2c(Nc3ccc(F)cc3F)ncnc21 | 97.2
CCC1CCCCN1CCCNC(=O)CC1CCN(S(=O)(=O)c2cccs2)CC1 (stereo not given) | 105.6
NS(=O)(=O)c1ccc(NC(=O)CSc2nnc(NC(=O)CN3CCCCC3)s2)cc1 | 114.4
Cc1ccc(NS(=O)(=O)c2cc(-c3nc(C(C)(C)C)cs3)cs2)c(Br)c1 | 104.2
CCOc1ccc(C2C(C#N)=C(C(=C=[N-])C#N)NC(O)(C3CC3)C2[n+]2ccc(C)cc2)cc1 (stereo not given) | 114.0
Cc1ccc(C)c(N2CCN(c3ncc(S(=O)(=O)c4ccccc4)c(N)n3)CC2)c1 | 110.7
CCOc1ccc([C@@H]2[C@@H](C(C)=O)N3c4ccccc4C=C[C@@H]3C2(C#N)C#N)cc1 | 113.9
CCOC(=O)c1cc(C)nc2c1c(=O)n(Cc1ncc(C)c(OC)c1C)c(=O)n2C | 98.0
COc1ccc(C(=O)NCc2nnc(SCC(=O)N3N=C(c4ccc(OC)cc4)CC3c3ccc(F)cc3)n2C)cc1 (stereo not given) | 109.3
CCCN1c2ccccc2-c2c(ssc2=S)C1(C)C | 109.6
CSc1ccc(C2C3=C(CCCC3=O)Nc3ncnn32)cc1 (stereo not given) | 101.1
N#CC1(C#N)[C@H](c2ccccc2I)[C@@H](C(=O)c2ccccc2)N2c3ccc(Cl)cc3C=C[C@@H]21 | 111.4
CC(C)(C)NS(=O)(=O)c1ccc(-c2ccno2)s1 | 98.2
CCC(=O)Nc1cccc(-c2noc(C3CCCN(C(=O)CNC(=O)c4ccccc4)C3)n2)c1 (stereo not given) | 110.2
Cc1csc(-c2csc(S(=O)(=O)Nc3ccc(Br)c(C)c3)c2)n1 | 99.1
Cc1ccc(NC(=O)N2CCCC2c2c(C)noc2C)cc1C (stereo not given) | 105.9
Cc1ccc(C(C)C)c(OCC(=O)Nc2oc(-c3ccccc3)c(-c3ccccc3)c2C#N)c1 | 111.0
O=C(Nc1ccc(Br)cc1F)c1cc(S(=O)(=O)N2CCc3ccccc3C2)ccc1F | 105.9
COc1ccc(C2C3=C(CC(C)(C)CC3=O)Nc3ncnn32)c(OC)c1OC (stereo not given) | 104.2
O=C(Nc1ccc(F)cc1)c1nc(-n2cnnc2)ccc1Br | 102.3
Cc1ccc(-c2noc(-c3ccccc3S(=O)(=O)NCCC(C)C)n2)cc1 | 100.5
CC(C)c1cc(C2CCCN2Cc2cc(Cl)ccc2O)no1 (stereo not given) | 101.2
CCN(CC)C(=O)CSc1nc2ccccc2n1S(=O)(=O)c1cccc([N+](=O)[O-])c1 | 110.3
Cc1ccccc1-n1c(=S)sc2c1nc(SCC(=O)NCc1ccccc1)n1c3ccccc3nc21 | 104.0
Cc1ccccc1-c1noc(Cn2c(=O)n(CCc3ccccc3)c(=O)c3sccc32)n1 | 102.1
CN(Cc1ccccc1)C(=O)CCS(=O)(=O)c1nc2c(=O)n(C)c(=O)n(C)c2n1C | 100.8
CCOC(=O)Cc1nnc2c(N(CC)c3ccccc3)nc3nonc3n12 | 106.1
Cc1ccc2nc3c(C#N)c(C)cc(N4CCCCC4)n3c2c1 | 99.8
CCOC(=O)c1[nH]c(C)c(CCC(=O)N2CCCC(C(=O)NCCOC)C2)c1C (stereo not given) | 105.4
O=C(CCc1ccnc(N2CCCC2)c1)NCCCN1CCCC1=O | 100.6
Cn1nc(C(=O)N2CCCC2)c2c1CCN(C(=O)CCC(=O)N1CCC(N3CCCCC3)CC1)C2 | 107.6
O=c1cc(CSc2nc(Nc3ccc(F)c(F)c3)c3ccccc3n2)nc2ccc(Cl)cn12 | 106.2
Cc1nc(-c2ccc(C)c(-n3cc(C(=O)NCc4ccccc4Cl)c(C)n3)c2)no1 | 104.2
O=C(Nc1ccccc1O)C1OC2OC3(CCCCC3)OC2C2OC3(CCCCC3)OC12 (stereo not given) | 109.8
CCOC(=O)c1nnn(-c2nonc2N)c1CN(CC)CC | 104.7
COc1ccc(C(C)=O)cc1CSc1nc2ccccc2c(=O)n1CCC(=O)NCCc1ccc(OC)c(OC)c1 | 113.4
CCCCOc1ccc(-c2nc(C=Nc3ccc(OC)cc3[N+](=O)[O-])c(O)o2)cc1 | 107.5
Cc1ccc(C(=O)N2CCc3c(c(COCc4ccccc4C)nn3C)C2)cc1 | 102.4

Some of the entries so far, as labelled records:
> O=c1cc(CSc2nc(Nc3ccc(F)c(F)c3)c3ccccc3n2)nc2ccc(Cl)cn12
  GIV Gai3 FP: 106.2

> CCOC(=O)c1nnn(-c2nonc2N)c1CN(CC)CC
  GIV Gai3 FP: 104.7

> Cc1ccc(C(=O)N2CCc3c(c(COCc4ccccc4C)nn3C)C2)cc1
  GIV Gai3 FP: 102.4

The list goes on:
mol | GIV Gai3 FP
CS(=O)(=O)N1Cc2ccccc2CC1C(=O)NCc1ccccc1Cl (stereo not given) | 105.5
COc1cccc(NS(=O)(=O)c2cc(C(=O)N3CCCC3)ccc2NCCc2ccc(OC)c(OC)c2)c1 | 107.1
c1ccc(CCn2c(-c3ccc(-c4ccccc4)cc3)csc2=Nc2ccccc2)cc1 | 109.6
O=S(=O)(c1ccc(Cl)cc1)n1nnc2ccccc21 | 106.0
O=C(Nc1cc(Cl)ccc1Oc1ccc2ccccc2c1Br)c1cc(Cl)cc(Br)c1O | 108.7
CCOC(=O)c1sc2nc(SCC(=O)c3ccccc3)n(Cc3ccco3)c(=O)c2c1C | 115.5
CC(=O)N1CCCc2cc(S(=O)(=O)N3CCC(C(=O)N4CCN(c5ccccn5)CC4)CC3)ccc21 | 98.0
O=C(NCCc1cscn1)[C@H]1CSCN1C(=O)c1ccc(F)cc1 | 100.9
Cc1cc(C)n(-c2nc(C)c(C)c(=O)n2CC(=O)NC2CCCC2)n1 | 101.8
COc1ccc(-c2cc3cc(OC)c(OC)cc3c(Cc3ccccc3)n2)cc1C | 106.9
COc1ccc(OC)c(/C=C2/SC(=S)N(CNc3ccc(Br)cc3)C2=O)c1 | 105.9
CCCCNC(=O)c1cccc(-c2ccc(Oc3ccc(OC)cc3)nn2)c1 | 99.3
O=C1Nc2ccccc2Oc2cc(Oc3ccc4c(c3)OCO4)c(S(=O)(=O)N3CCOCC3)cc21 | 100.5
CCN(CC)C(=O)c1ccc(-c2nc3cc(NS(=O)(=O)c4ccc(Cl)cc4)ccc3n2C)cc1 | 99.9
Cc1cc(NC(=O)C2CCCN(C(=O)C3Sc4ccccc4NC3=O)C2)ccc1Br (stereo not given) | 103.0
CCN(Cc1ccccc1)S(=O)(=O)c1ccc(F)c(C(=O)Nc2cccc(Cl)c2)c1 | 107.2

3 compounds already listed, arranged by their value in GIV Gai3 FP, falling.
mol | GIV Gai3 FP
CCN(Cc1ccccc1)S(=O)(=O)c1ccc(F)c(C(=O)Nc2cccc(Cl)c2)c1 | 107.2
COc1ccc(-c2cc3cc(OC)c(OC)cc3c(Cc3ccccc3)n2)cc1C | 106.9
Cc1cc(C)n(-c2nc(C)c(C)c(=O)n2CC(=O)NC2CCCC2)n1 | 101.8

Continued.
Molecule,GIV Gai3 FP
O=C(NC1CCCCNC1=O)C1CCN(Cc2noc(-c3ccc(F)cc3)n2)CC1 (stereo not given),106.7
Cc1cccn2cc(-c3ccc(F)cc3)nc12,103.9
Cc1ccc(-c2ccc(-n3nc(C)c(S(=O)(=O)Nc4ccc5c(c4)OCCO5)c3C)nn2)cc1C,103.0
COc1ccc(-n2ncc3c(Nc4ccc(C)cc4C)ncnc32)cc1,100.1
N#CC1=CN2C(C(=O)C3CC3)C(c3ccccc3)C(C#N)(C#N)C2C=C1 (stereo not given),192.6
O=C(NCc1ccccc1)c1nnc2ccc(-c3ccccc3)nn12,101.3
COc1ccc(-c2csc(C)n2)cc1S(=O)(=O)N1CCC2(CC1)OCCO2,100.7
CCCc1cc(C2CCCN2Cc2cc(Br)ccc2OC)no1 (stereo not given),98.1
CCN(c1ccccc1)S(=O)(=O)c1ccc2[nH]cc(C(=O)NCc3ccccc3OC)c(=O)c2c1,103.1
CCOc1ccc2c(c1)C(=O)c1cc(O)ccc1-2,123.5
Cc1ccc(NC(=O)CCc2nc(CSc3nc4ccccc4s3)no2)cc1Cl,103.8
O=C1c2ccccc2C2(O)N(c3ccccc3)C(=S)N(c3ccccc3)C12O (stereo not given),109.9
O=C(c1ccccc1Cl)N1CCOc2ccc(COCc3ccc(F)cc3)cc2C1,100.5
Cc1ccc(N2CC(C(=O)N3CCN(S(=O)(=O)c4ccc5c(c4)oc(=O)n5C)CC3)CC2=O)cc1 (stereo not given),107.5
Cn1c(=O)oc2cc(S(=O)(=O)N3CCN(C(=O)CNC(=O)c4ccccc4)CC3)ccc21,107.0
CC(Oc1ccc(-c2cnc3ccccc3n2)cc1)C(=O)NC1CCCCC1 (stereo not given),101.6
O=C1c2ccccc2NC(c2ccc(OCc3ccccc3Cl)cc2)N1c1ccc(F)cc1 (stereo not given),108.5
CN1C(=O)N(C)C2C1NC(=O)N2C1CCCCC1 (stereo not given),121.1
NC(=O)c1ccc2c(c1)CCN2C(=O)C1CC1,103.7
CCOc1cccc2c1OC(c1cccc(Cl)c1)N1N=C(c3cccnc3)CC21 (stereo not given),109.7
Cn1nc(-c2nc(-c3ccccc3)no2)c2c1CCN(S(=O)(=O)c1cnc[nH]1)C2,102.3
Cc1cc(C)cc(NC(=O)CCc2nc(CSc3nc(-c4ccccc4)cs3)no2)c1,103.8
c1ccc2c(c1)oc1c(NC3CCCCC3)ncnc12,119.1
CC1(C)CC(=O)C2=C(C1)N(c1cccc(O)c1)C(=O)CC2c1ccccc1 (stereo not given),108.1
CC(=O)Nc1cccc(-c2nc(-c3ccc4c(c3)ncn4CCC(=O)N3CCCC3)no2)c1C,102.6
Cc1ccc(-c2cc(C(F)(F)F)n3nc(C(=O)NCC4CCCO4)nc3n2)cc1 (stereo not given),103.1
Cc1ccc(C(=O)COC(=O)c2ccccc2N2C(=O)C3C4C=CC(C4)C3C2=O)cc1[N+](=O)[O-] (stereo not given),99.4
O=C(C1CCN(c2cncnc2N2CCOCC2)CC1)N1CCOCC1,105.4
CC1CCN(CCCNC(=O)C2CCc3sc(C(=O)N4CCCC4)cc3C2)CC1 (stereo not given),105.5
O=C(Nc1ccccc1)c1nnc(C2CCN(C(=O)NCC3CCCO3)CC2)s1 (stereo not given),109.9
CCOC(=O)C1=C(C)NC2=C(C(=O)C(C(=O)OCC)C(c3cccc(OC)c3)C2)C1c1ccccc1OC (stereo not given),106.0
CCCCCOc1ccc(N2C(=O)CSC23C(=O)Nc2ccccc23)cc1 (stereo not given),104.0
COc1ccc(C(=O)N2CCN(c3nc(-c4ccccc4)no3)CC2)cc1OC,111.1
Cc1ccc2c(c1)c(-c1ccccc1)c(-c1ccccc1)n2CC(O)CNc1ccccc1C (stereo not given),110.7
CC1CCn2c(nc3cc(C(=O)N4CCOCC4)ccc32)C1 (stereo not given),103.8
C=CCOC(=O)C1=C(C)NC(C)=C(C(=O)OCC=C)C1c1cn(-c2ccccc2)nc1-c1cccs1,115.3
O=C(Nc1ccccc1)c1ccc(Nc2ncc(-c3cccc(F)c3)cn2)cc1,103.7
CC(=O)Oc1ccc(C(=O)Nc2ccc3nc(-c4ccccc4)oc3c2)cc1,115.1
CCc1nnc(NC(=O)CSc2nc(-c3cccs3)cc(C(F)(F)F)c2C#N)s1,106.5
COc1ccc(-n2c(=O)c3c(n4c(SC)nnc24)-c2ccccc2CC32CCCCC2)cc1,119.5
COC(=O)C1C(c2ccccc2)C(C(=O)OC)S(=O)(=O)CS1(=O)=O (stereo not given),120.7
CCOC(=O)C1=C(O)/C(=C/c2ccc(N(CC)CC)cc2)SC1=Nc1ccc([N+](=O)[O-])cc1,132.4
Cc1ccc(-n2nnnc2CNC(=O)NCCc2ccccc2)cc1,96.5
CCC(C)NC(=O)C1CCN(S(=O)(=O)c2c(C)nn(CC(=O)Nc3ccc(C)cc3)c2C)CC1 (stereo not given),101.8
CCOc1ccc(C2C(N3C(=O)c4c(Cl)c(Cl)c(Cl)c(Cl)c4C3=O)C(=O)N2c2ccc(OCC)cc2)cc1 (stereo not given),111.8
CCCc1cc(C2CCCN2C(=O)NC2CCCCC2)no1 (stereo not given),101.6
Cc1cc(NC(=O)c2ccncc2)ccc1-c1nc2ccccc2s1,101.5
Cc1cccc(N2CCN(C(=O)CCN3C(=O)c4ccccc4C3=O)CC2C)c1 (stereo not given),111.6
CCCNC(=O)CN1C(=O)CSc2sc(S(=O)(=O)N3CCCC3)cc21,98.8
Cc1ccc(N(CC(O)CN(CC(C)C)CC(C)C)S(=O)(=O)c2ccc(C)cc2)cc1 (stereo not given),106.7

(list continues)
Molecule,GIV Gai3 FP
CCOc1ccc(C2NCCc3c2[nH]c2ccccc32)cc1 (stereo not given),113.0
Cc1ccc(NNC(=O)C(O)(c2ccc(Cl)cc2)c2ccc(Cl)cc2)c(Br)c1,116.2
CCn1c(=O)c2sc(N3CCCC3)nc2n(CC(=O)Nc2ccccc2)c1=O,106.8
FC(F)(F)c1cc(Br)c2nc(-c3ccccc3)c(-c3ccccc3)nc2c1,115.6
COc1cc(NC(=O)c2sc3ncn(CC(=O)Nc4ccc(C)c(Cl)c4)c(=O)c3c2C)cc(OC)c1OC,108.0
Cc1cccc(N2C(=O)C3CCC(C)(C2=O)C3(C)C)c1 (stereo not given),102.5
Cc1cc2c3c(c(Br)cc(S(=O)(=O)O)c3n1)C(=O)c1ccccc1-2,82.6*
CC(C)(C)NC(=O)Cn1nc(C(=O)N2CCCC2)ccc1=O,99.5
CCCCCCCOc1ccc(C(=O)Oc2ccc3ccccc3c2)cc1,99.5
O=C(Nc1nnc(SCc2cc(=O)n3cc(Cl)ccc3n2)s1)C1CCCCC1,104.3
COc1cc(/C=c2/sc3nc4c(C)c(C)ccc4n3c2=O)cc(OC)c1OC(C)=O,107.2
CC1(C)CC(=O)C2=C(C1)Nc1ccc3ccccc3c1C2c1cccc2ccccc12 (stereo not given),106.2
